AmpC nodet inh: Promiscuous and Specific Inhibitors of AmpC Beta-Lactamase (assay without detergent). AmpC nitrocefin hydrolysis, absorbance 480 nm, no detergent; potencies from a single point are estimates. P00811. Potency, µM (titrated, usually from 28.7 µM), for inactives: at the highest dose activity change, negative = inhibition. actives 1.8% (n = 71,000). AID 585, 2007; active = falling curve, for most hits resting on a single point; inconclusive = weak or doubtful change; inactive = flat or rising curve; also: % of control where 0% means no effect; about half of the hits show no inhibition at the top dose; a quarter of the inactives give rising signals
Target sequence (P00811 whole entry, looked up): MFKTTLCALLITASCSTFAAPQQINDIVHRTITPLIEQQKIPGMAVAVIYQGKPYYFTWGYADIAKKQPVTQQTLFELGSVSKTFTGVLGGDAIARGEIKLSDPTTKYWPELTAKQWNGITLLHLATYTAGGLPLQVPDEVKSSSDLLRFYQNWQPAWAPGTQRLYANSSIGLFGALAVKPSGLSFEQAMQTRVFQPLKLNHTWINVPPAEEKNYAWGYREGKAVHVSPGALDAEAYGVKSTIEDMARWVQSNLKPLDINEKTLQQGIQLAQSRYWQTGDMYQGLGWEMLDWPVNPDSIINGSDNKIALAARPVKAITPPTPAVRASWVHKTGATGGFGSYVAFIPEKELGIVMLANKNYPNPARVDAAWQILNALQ
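AmpC in 20 mM phosphate buffer pH 7.0 was preincubated 15 min at room temperature with compounds. Nitrocefin (800 uM stock) was then added and hydrolysis followed at 480 nm every 20 s for 4 min.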
Numbers without * were called inactive; ? = inconclusive; & = joins results of further samples; [ ] = another dose, or the depositor's remark. Potency is read from the fitted curve at half-maximal effect. Some of the compounds tested (hit frequency here may not be typical).

SMILES | AmpC nodet inh
O=C(CCc1nc2ccccc2c(=O)[nH]1)OCC(=O)N1CCN(S(=O)(=O)c2ccccc2)CC1 | 95%
Nc1ccccc1 | -19%
CN(CC(=O)NC1CCCCC1)S(=O)(=O)c1ccc(Br)s1 | -14%
Cc1ccnc(NC(=O)CCC(=O)N(CC(=O)NC2CCCCC2)CC2CCCO2)c1 (stereo unspecified) | 75%
COc1cccc(OCC(O)CO)c1 (stereo unspecified) | 7%
O=C(O)/C(Cc1ccnc2ccccc12)=N\O | 0%[5.75 µM]
CCCCOC(=O)Nc1nnc(-c2ccccc2OC)s1 | -19%
c1ccc(Cc2nnc3sc(-c4ccco4)nn23)cc1 | -19%
CC(C(=O)N1CCOCC1)(c1ccccc1)c1ccccc1 | 34%
CCOC(=O)N1CCN(CC(=O)Nc2cc(OCC)ccc2OCC)CC1 | 114%
CSc1ccc(Cl)c(C(=O)NCc2ccco2)c1 | -1%
CC(=O)N1CCN=C1SCc1ccccc1Cl | 10%
CC1(C)Cc2c(c(=S)nc(-c3ccccc3)n2CCOCCO)CO1 | 9%
O=[N+]([O-])/C=C/c1ccccc1 | -12%
Clc1ccc(C=NC23CN4CN(CN(C4)C2)C3)cc1 | 2%
CCC(=O)n1nc(-c2cccnc2)nc1NCc1ccc(OC)cc1 | 71%
O=C(NC1CC1)C1CCN(c2ccc(S(=O)(=O)N3CCOCC3)cc2Cl)CC1 | 17%
O=C(C1CCN(Cc2ccc(F)cc2)CC1)N(CCO)Cc1ccccc1 | 12%
Cc1ccc(-c2c(C#N)c(N)nc3c2CCCCCC3)o1 | -1%
Cc1ccc(S(=O)(=O)N2CCN(C(=O)c3cc(=O)[nH]c4ccccc34)CC2)c(C)c1 | 48%
COc1ccc(NC(=O)CNCCC2=CCCCC2)cc1 | 0%
COc1ccc(OCCn2c(NC(=O)c3ccco3)nc3ccccc32)cc1 | 15%
O=C(c1noc2c1CCCC2)N1CCN(C(c2ccccc2)c2ccccc2)CC1 | 54%
CCN(CC)CCCC(C)n1c(-c2ccccc2)nc2c(NCc3ccccc3)nc(C)nc21 (stereo unspecified) | 123%
N#Cc1nc(Cc2cccc3ccccc23)oc1NCCN1CCCCC1 | 10%

Six entries from above, set out differently:
| Molecule | AmpC nodet inh |
| --- | --- |
| O=C(NC1CC1)C1CCN(c2ccc(S(=O)(=O)N3CCOCC3)cc2Cl)CC1 | 17% |
| O=C(C1CCN(Cc2ccc(F)cc2)CC1)N(CCO)Cc1ccccc1 | 12% |
| Cc1ccc(-c2c(C#N)c(N)nc3c2CCCCCC3)o1 | -1% |
| Cc1ccc(S(=O)(=O)N2CCN(C(=O)c3cc(=O)[nH]c4ccccc34)CC2)c(C)c1 | 48% |
| COc1ccc(NC(=O)CNCCC2=CCCCC2)cc1 | 0% |
| COc1ccc(OCCn2c(NC(=O)c3ccco3)nc3ccccc32)cc1 | 15% |

More entries.
SMILES | AmpC nodet inh
O=C(COC(=O)c1cccs1)NCc1ccco1 | -12%
COc1cccc(C2CC(=O)Nc3cc(OC)c(OC)c(OC)c32)c1OC (stereo unspecified) | 9%
CCOC(=O)c1nnn(-c2nonc2-n2cccc2)c1C | 5%
CCN(CC(=O)Nc1ccc2c(c1)OCCO2)C(=O)c1cccc(S(=O)(=O)N2CCOCC2)c1 | 21%
O=C(CSc1nccc2ccccc12)N1CCN(c2ccccn2)CC1 | 17%
CC1CC(c2ccccc2)n2nc(NC(=O)c3cccs3)nc2N1 (stereo unspecified) | -18%
O=C(c1ccc2c(=O)n(Cc3ccc4c(c3)OCO4)c(=S)[nH]c2c1)N1CCCCC1 | 16µM*[single pt active]
COCCn1c(SCC(=O)Nc2cc(C)cc(C)c2)nnc1C(C)C | 31%
O=C(CCC(=O)N(CC(=O)NC1CCCCC1)Cc1ccco1)Nc1nccs1 | 11%
Cc1noc(NS(=O)(=O)c2ccc(NC(=O)CSc3nc4c(cc3C#N)CCC4)cc2)c1C | -18%
CCCCN(C(=O)NC(=O)Nc1ccccc1OC)S(C)(=O)=O | 2%
Cc1ccc(S(=O)(=O)N2CCN(S(=O)(=O)N3CCCCC3)CC2)cc1 | -8%
COc1ccccc1Nc1nc(N)nc(CN(C)C2CCCCC2)n1 | 6%
CCNC(=O)COc1ccc(Br)cc1Cl | 12%
O=c1[nH]c2c(s1)C(c1ccccc1)C1C3CCC(C3)C1S2 (stereo unspecified) | 1.6µM*
CCN(CCCNC(=O)C1CCC(=O)N1Cc1ccc(C)cc1)c1cccc(C)c1 (stereo unspecified) | 117%
O=C(c1cccc(F)c1)N1CCc2ccccc2C1 | 1%
C=CCNC(=O)c1cnc2n(c1=O)CCS2 | 4%
Cc1ccc(C2c3c(-c4ccccc4O)n[nH]c3C(=O)N2Cc2ccncc2)cc1 (stereo unspecified) | 2%
O=C(CSC1=NS(=O)(=O)c2ccccc21)Nc1ccccc1 | -2%
CCn1c(SCC(=O)NCc2ccco2)nc2cccnc21 | -3%
COc1ccc2cc1Oc1ccc(cc1)C[C@@H]1c3c(cc(OC)c4c3Oc3cc5c(cc3O4)CCN[C@H]5C2)CCN1C | 54%[5.75 µM]
CN(C)c1nc(OCCOC(=O)c2ccccc2)nc(N(C)C)n1 | 50%
CC(Nc1ncnc2nc[nH]c12)c1ccccc1 (stereo unspecified) | 19%
COc1ccc(S(=O)(=O)NCc2ccc(C(=O)N3CCC4(CC3)OCCO4)cc2)cc1 | 44%

Next part
SMILES | AmpC nodet inh
Cc1ccc(-c2ccc(=O)n(CC(=O)NCCCN3CCCCC3)n2)cc1 | 1%
Cc1onc(-c2ccccc2Cl)c1C(=O)N1CCCCC1C(=O)O (stereo unspecified) | 0%
Cc1ccc2c(C(=O)CN3CCSCC3)c(C)[nH]c2c1 | 20%
CCN1CCN(C(=O)c2cc3sccc3n2CC(=O)c2ccccc2)CC1 | 59%
CCOC(=O)N1CCC(N2C(=O)c3ccccc3C2Nc2ccc3c(c2)OCCO3)CC1 (stereo unspecified) | 91%
O=C(CN1C(=O)c2cccc3cccc1c23)N1CCN(Cc2ccc3c(c2)OCO3)CC1 | 96%
N=c1n(CCO)c2ccccc2n1Cc1ccccc1 | -4%
COC(=O)c1ccccc1NC(=O)CN(C)S(=O)(=O)c1ccc(OC)cc1 | 27%
CCCC(=O)Nc1cccc2c1CCCC2 | -11%
CCCCN(C(=O)NC(=O)Nc1cccc(C)c1C)S(C)(=O)=O | -2%
O=C(c1cccc(F)c1)N1CCCC(C(=O)N2CCCC2)C1 (stereo unspecified) | 1%
COc1ccc(C(=O)Nn2c(SCC(=O)NCc3ccco3)nc3ccccc3c2=O)cc1 | 89%
O=C(NCc1ccncc1)C(F)(F)C(F)(F)C(=O)NCc1ccncc1 | -1%
COc1ccccc1N1CCN(CCCNC(=O)Nc2ccccc2C)CC1 | 22%
CCc1nnc(NC(=O)C2CCCN(c3nc4ccccc4s3)C2)s1 (stereo unspecified) | 7%
CCN(Cc1cc2cc(OC)ccc2[nH]c1=O)C(=O)c1ccncc1 | 0%
CC(c1ccc(F)cc1)n1cc(C(=O)NCc2ccc3c(c2)OCO3)nn1 (stereo unspecified) | -4%
Cc1noc(C)c1C(=O)NCCCN1CCCC1=O | -9%
Cc1ccc(S(=O)(=O)Oc2cc(S(=O)(=O)O)cc3cc(S(=O)(=O)O)cc(N)c23)cc1 | -5%[5.75 µM]
COc1ccc(OC)c2c(N3CCN(C)CC3)cc(C(F)(F)F)nc12 | 21%
N#CCSc1nc(-c2ccccc2)cs1 | -15%
CCOc1ccc(C2C(C(=O)NC)=C(C)Nc3nc4ccccc4n32)cc1OC (stereo unspecified) | 8%
Cc1cccc2cc3ccc4ccccc4c3cc12 | 4%[5.75 µM]
CC(=O)C1C(=O)C=C(c2ccco2)CC1c1ccccc1 (stereo unspecified) | 12%
O=C(O)c1cccnc1SCC(=O)N1CCCCCC1 | -4%

Rewritten in CSV form: four of the compounds above
Molecule,AmpC nodet inh
Cc1ccc(S(=O)(=O)N2CCN(S(=O)(=O)N3CCCCC3)CC2)cc1,-8%
COc1ccccc1Nc1nc(N)nc(CN(C)C2CCCCC2)n1,6%
CCNC(=O)COc1ccc(Br)cc1Cl,12%
O=c1[nH]c2c(s1)C(c1ccccc1)C1C3CCC(C3)C1S2 (stereo unspecified),1.6µM*

Laid out differently: results already given.
CCOc1ccc(C2C(C(=O)NC)=C(C)Nc3nc4ccccc4n32)cc1OC (stereo unspecified)
  AmpC nodet inh = 8%

CCN1CCN(C(=O)c2cc3sccc3n2CC(=O)c2ccccc2)CC1
  AmpC nodet inh = 59%

Carrying on.
SMILES | AmpC nodet inh
Cn1c(=O)c(-c2cc(F)cc(F)c2)nc2cnc(Oc3ccccc3)nc21 | 5%
O=C(Nc1cccc(Cl)c1)N(Cc1nc2ccccc2c(=O)[nH]1)C1CCCC1 | -22%
COc1ccc(-c2nn(-c3ccccc3)cc2C(=O)O)cc1 | 1%
O=C(NCS(=O)(=O)c1ccccc1)c1ccccc1 | -1%
CC(NC(=O)Cc1cccs1)c1ccncc1 (stereo unspecified) | -8%
O=C(Cn1c(=O)n(Cc2ccco2)c(=O)c2c3c(sc21)CCCC3)Nc1ccccc1 | ?
COc1ccc(CN(C(C)=O)c2cccc(C)c2C)cc1 | 47%
COc1cc(S(=O)(=O)N2CCN=C2c2ccccc2)ccc1F | 19%
COC(=O)CSc1nc(N2CCOCC2)c2c(c1C#N)CC(C)(C)N(C)C2 | 38%
Cc1ccc2cccc(OC(=O)N(C)c3ccccc3)c2n1 | 33%
CN(C)c1ccc(-c2nnn(Cc3ccccc3Br)n2)cc1 | -6%
CC1CCN(c2oc(-c3cccc4ccccc34)nc2C#N)CC1 | -15%
Cc1nc2c([nH]c3ccc(Br)cc32)s1 | -4%
COC(=O)COc1cccc(NC(=O)COc2ccccc2)c1 | 9%
Cc1ccc2c(c1)NC(=O)C(CC(=O)NCCCN1CCCCC1)O2 (stereo unspecified) | 2%
O=C(O)C1C2C=CC(C2)C1C(=O)N1CCN(CCO)CC1 (stereo unspecified) | -21%
Cc1ccc(OCC(O)CN2CCN(CC(O)COc3ccc(C)cc3Cl)CC2)c(Cl)c1 (stereo unspecified) | -2%
COc1ccc(CN2C(=O)CN(C3CCCCCC3)C(=O)C2c2ccc(OC)c(OC)c2)cc1 (stereo unspecified) | 119%
Cc1csc(NC(=O)CSc2nnc(-c3cccs3)n2C)n1 | -4%
Cc1ccccc1-n1nc2c(c1NC(=O)c1cc3ccccc3oc1=O)CS(=O)C2 (stereo unspecified) | 56%
Cc1csc(NC(=O)c2c(O)c3c(n(CC(C)C)c2=O)CCCC3)n1 | 50%
COc1ccc(C2C(=O)c3ccccc3C2=O)c(OC)c1 | 4%
CC(C)C(NC(=O)c1cccs1)C(=O)NC1=NCCS1 (stereo unspecified) | 7%
O=C(Nc1nc2ccccc2s1)C1CCCO1 (stereo unspecified) | 6%
CCCCc1cc(=O)oc2cc(C)cc(OCC(=O)O)c12 | -5%

New compounds follow:
SMILES | AmpC nodet inh
Cc1ccc(-n2c(=O)cc(N3CCc4ccccc4C3)[nH]c2=O)cc1 | -2%
CC1CCN(C(=O)c2cc3ccccc3o2)CC1 | 5%
N#C/C(=C\Nc1ccccn1)C(=O)C1CC1 | -16%[5.75 µM]
Cn1c(=O)[nH]c(=O)c2c1nc(N1CCOCC1)n2CC(O)COc1ccccc1 (stereo unspecified) | 14%
COc1cccc2c1cc([N+](=O)[O-])c1c(C(=O)O)cc3c(c12)OCO3 | -16%
CCn1c(C)nc2cc(S(=O)(=O)C(F)(F)C(F)C(F)(F)F)ccc21 (stereo unspecified) | 34%
Cc1nc2cnc(Oc3ccccc3)nc2n(CCC#N)c1=O | 7%
O=S(=O)(NCC1CCCO1)c1cc(Br)c(Br)s1 (stereo unspecified) | 13%
Cc1nc(Nc2ccc(F)cc2)[nH]c(=O)c1CCC(C)C | 3%
CCCCN(Cc1ccccc1)C(=O)C1CCCN(S(=O)(=O)c2cnc[nH]2)C1 (stereo unspecified) | 62%
COCCCNc1oc(COc2ccc(Cl)cc2Cl)nc1C#N | 99%
N#CCCN(Cc1cccnc1)S(=O)(=O)c1ccc(S(=O)(=O)N2CCCCCC2)cc1 | 93%
Cn1c(=O)c(=O)n(C)c2cc(S(=O)(=O)CCC(=O)N3CCOCC3)ccc21 | 4µM*[single pt active]
CO[C@]1(C2=NCCN2)COc2ccccc2O1 | 1%&3%
O=C1CC(NCc2ccccc2F)C(=O)N1c1ccccc1 (stereo unspecified) | 5%
O=C(Nc1ccc2c(c1)OCO2)C1CCCN1C(=O)NCc1ccccc1 (stereo unspecified) | 4%
COC(=O)N1CCC2(CCN(C(=O)Nc3ccccc3)CC2)CC1 | 7%
Cc1ccc(NCc2nnc(SCC(=O)Nc3ncc(C)s3)n2CC2CCCO2)c(C)c1 (stereo unspecified) | 104%
COc1ccccc1NS(=O)(=O)c1ccc(NC(=O)c2nc3ncccn3n2)cc1 | 15%
NC(=O)C1CCCN(C(=O)Nc2cccc3ccccc23)C1 (stereo unspecified) | 17%
O=C(CCSc1nc2cc(Cl)ccc2o1)N1CCOCC1 | 39%
O=C(CSc1ncn(-c2ccccc2)n1)Nc1ccc2c(c1)OCO2 | -16%

3 structures from above, sorted by length of the SMILES, lowest first.
SMILES | AmpC nodet inh
O=S(=O)(NCC1CCCO1)c1cc(Br)c(Br)s1 (stereo unspecified) | 13%
COC(=O)N1CCC2(CCN(C(=O)Nc3ccccc3)CC2)CC1 | 7%
COc1cccc2c1cc([N+](=O)[O-])c1c(C(=O)O)cc3c(c12)OCO3 | -16%

High-throughput results: PubChem, National Center for Advancing Translational Sciences (NCATS)
